Source: PubChem BioAssay (Broad Institute)
Vaccinia inh – blocks a specific stage of Vaccinia orthopoxvirus infection. Vaccinia-infected cells, mCherry/Venus stage reporter fluorescence; hits give low values; some inactives read as strong as hits. activity change (mCherry), % (concentration not given with the values). 0.01% of 89,000 active. AID 1053133;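 active means mCherry past -33% and 40 or more points under the early reporter, replicates agreeing; inconclusive means past -33% without that gap or agreement; tested in A549 cells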;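 further: scaled between vehicle wells and reference inhibitor wells; 23 nL library stock went into each well; one replicate is shown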
Vaccinia inh Venus – recorded beside Vaccinia inh, whose call it bears; activity change (Venus), %; measured here: Venus reporter, other viral stage;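 negative = less Venus signal; first of two replicates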
* hit, by the source's call; ? = inconclusive; nt = no result given. The list is partial; the hit share may differ from the screen's.

Each structure is followed by: Vaccinia inh, Vaccinia inh Venus
O=C(C[C@H]1C[C@@H]2c3cc(NC(=O)C4CCOCC4)ccc3O[C@@H]2[C@@H](CO)O1)NCc1ccccc1F
  26.2, 21.9
C/C=C/c1ccc2c(c1)O[C@@H](CN(C)C(=O)CC1CC1)[C@@H](C)CN([C@H](C)CO)S2(=O)=O
  -1.2, 2.8
C[C@@H]1CN([C@@H](C)CO)C(=O)c2cc(N(C)C)ccc2O[C@@H]1CN(C)S(=O)(=O)c1cccs1
  18.2, -2.5
C[C@H](CO)N1C[C@H](C)[C@H](CN(C)S(=O)(=O)c2ccc(Cl)cc2)Oc2c(NC(=O)C3CCCCC3)cccc2C1=O
  -26.8, -24.0
C[C@@H]1CN([C@H](C)CO)S(=O)(=O)c2ccc(/C=C/c3ccccc3)cc2O[C@@H]1CN(C)C(=O)c1ccncc1
  -30.9, -18.7
CC(C)CC#Cc1ccc2c(c1)O[C@H](CN(C)CC1CCOCC1)[C@@H](C)CN([C@@H](C)CO)S2(=O)=O
  ?, nt
COc1cccc(NC(=O)N[C@H]2C=C[C@@H](CC(=O)Nc3ccccc3)O[C@H]2CO)c1
  -15.3, -6.9
C[C@H](CO)N1C[C@H](C)[C@H](CN(C)Cc2ccc3c(c2)OCO3)Oc2ccc(NC(=O)C3CC3)cc2C1=O
  -9.3, -8.1
CC(C)NC(=O)Nc1ccc2c(c1)C(=O)N([C@@H](C)CO)C[C@H](C)[C@H](CN(C)Cc1ccncc1)OCCCC[C@H](C)O2
  28.1, 2.6

Structures shown so far containing a carbonyl joined to an NH by a bond outside any ring:
Each structure is followed by: Vaccinia inh, Vaccinia inh Venus
O=C(C[C@H]1C[C@@H]2c3cc(NC(=O)C4CCOCC4)ccc3O[C@@H]2[C@@H](CO)O1)NCc1ccccc1F
  26.2, 21.9
C[C@H](CO)N1C[C@H](C)[C@H](CN(C)S(=O)(=O)c2ccc(Cl)cc2)Oc2c(NC(=O)C3CCCCC3)cccc2C1=O
  -26.8, -24.0
COc1cccc(NC(=O)N[C@H]2C=C[C@@H](CC(=O)Nc3ccccc3)O[C@H]2CO)c1
  -15.3, -6.9
C[C@H](CO)N1C[C@H](C)[C@H](CN(C)Cc2ccc3c(c2)OCO3)Oc2ccc(NC(=O)C3CC3)cc2C1=O
  -9.3, -8.1
CC(C)NC(=O)Nc1ccc2c(c1)C(=O)N([C@@H](C)CO)C[C@H](C)[C@H](CN(C)Cc1ccncc1)OCCCC[C@H](C)O2
  28.1, 2.6
